Assay outcomes deposited in PubChem by Broad Institute.
MLL AF4-AF9 inh = blocks AF4 peptide binding to human AF9 | 350,000 tested, 0.47% active | AlphaScreen, biotin-AF4 peptide binding to FLAG-AF9 | inhibition, % at 10 µM | P42568;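 active = every replicate reaching a set inhibition limit, whatever the replicate mean, cut at about 25% in these data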;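 also: 0% = plate neutral control median and 100% = total signal loss; the record names both 10 and 1 µM as test concentration; the first replicate is given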
Target sequence (P42568 whole entry, looked up): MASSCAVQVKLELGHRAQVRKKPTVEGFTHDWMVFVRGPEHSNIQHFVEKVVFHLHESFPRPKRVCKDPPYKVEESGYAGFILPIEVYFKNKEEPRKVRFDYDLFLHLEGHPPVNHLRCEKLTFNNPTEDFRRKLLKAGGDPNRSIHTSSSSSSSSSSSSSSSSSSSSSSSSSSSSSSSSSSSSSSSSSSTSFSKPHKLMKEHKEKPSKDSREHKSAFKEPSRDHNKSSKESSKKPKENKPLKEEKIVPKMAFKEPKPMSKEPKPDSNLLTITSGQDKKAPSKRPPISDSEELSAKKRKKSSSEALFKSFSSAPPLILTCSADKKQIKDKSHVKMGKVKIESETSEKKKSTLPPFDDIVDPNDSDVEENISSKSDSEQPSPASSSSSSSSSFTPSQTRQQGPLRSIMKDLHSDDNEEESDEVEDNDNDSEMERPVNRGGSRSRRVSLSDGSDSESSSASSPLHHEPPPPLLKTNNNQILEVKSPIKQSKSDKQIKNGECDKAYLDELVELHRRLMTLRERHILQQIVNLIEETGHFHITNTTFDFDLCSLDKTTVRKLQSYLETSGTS
Active calls of the source: *. The list is partial; rates above refer to the full screens.

Compound | MLL AF4-AF9 inh
CCCC(O)C#Cc1cnc2c(c1)C(=O)N([C@H](C)CO)C[C@H](C)[C@H](CN(C)Cc1ccncc1)O2 (stereo not given in full) | -4.1
CCc1nc2c(OCc3ccc(S(C)(=O)=O)cc3)cccn2c1N(C)C(=O)c1ccccc1F | -4.6
O=C(NCC[C@H]1CC[C@H](NS(=O)(=O)c2ccccc2)[C@H](CO)O1)c1ccccc1F | 2.5
CO[C@@H]1CN(C)C(=O)c2cc(NC(=O)c3nc4ccccc4s3)ccc2OC[C@@H](C)N(Cc2ccccc2)C[C@H]1C | -1.6
CO[C@H]1CC[C@@H]2CCOc3c(C#N)cccc3C(=O)N(C)C[C@@H](C)C(=O)N(C)C[C@@H]1O2 | -8.8
Nc1nc2c(ncn2[C@@H]2O[C@H](CNC(=O)[C@H](N)Cc3ccccc3)[C@@H](O)[C@H]2O)c(=O)[nH]1 | -0.3
C[C@H](CO)N1C[C@H](C)[C@@H](CN(C)C)Oc2ccc(NC(=O)Cc3cn(C)c4ccccc34)cc2C1=O | -4.1
O=C(Cc1ccccc1)N1CC(=O)N2[C@H](C1)[C@H](c1ccc(C#CCc3ccccc3)cc1)[C@@H]2CO | 0.1
C[C@H]1CN([C@@H](C)CO)C(=O)c2cccc(NC(=O)C3CCOCC3)c2O[C@H]1CN(C)Cc1ccc(Cl)c(Cl)c1 | -2.5
CC(C)CC#Cc1cnc2c(c1)C(=O)N([C@@H](C)CO)C[C@@H](C)[C@@H](CN(C)S(=O)(=O)c1cccs1)O2 | -0.1
CCC(=O)N1CC2(C1)[C@H](c1ccc(-c3ccc(C)cc3)cc1)[C@@H](CO)N2S(C)(=O)=O | 0.8
C[C@@H]1CN([C@@H](C)CO)C(=O)c2cc(NC(=O)Nc3ccccc3)ccc2O[C@H]1CN(C)CC1CCCCC1 | 2.5
CC(C)[C@@H](C)NC(=O)N(C)C[C@@H]1OCc2ccccc2-c2c(n(C)c3ccccc23)C(=O)N([C@@H](C)CO)C[C@@H]1C | -2.5
C[C@H](CO)N1C[C@H](C)[C@@H](CN(C)S(C)(=O)=O)Oc2ncc(C#CC3CC3)cc2C1=O | 1.0
CO[C@@H]1CN(C)C(=O)c2ccc(NC(=O)NC(C)C)cc2OC[C@@H](C)N(C)C[C@H]1C | -3.3
CC(C)NC(=O)N1[C@@H]2CNC[C@H]1C2c1ccc(-c2ccc(C#N)cc2)cc1 (stereo not given in full) | 4.9
CNC[C@H]1Oc2cc(C#Cc3cccc(F)c3)ccc2S(=O)(=O)N([C@H](C)CO)C[C@@H]1C | 7.1
CO[C@H]1CN(C)C(=O)c2cc(NC(=O)C3CCOCC3)ccc2OC[C@H](C)N(C)C[C@@H]1C | 0.0
COc1ccc2c3c([nH]c2c1)[C@H](CO)N(S(=O)(=O)c1cn(C)cn1)CC31CCN(Cc2ccccc2)CC1 | 15
CCOC(=O)C1=CCN(S(=O)(=O)c2ccc(C)cc2)C1c1ccccc1 (stereo not given) | -4.1
CC(C)CNc1ncnc2c1ncn2[C@H]1CN(Cc2ccco2)C[C@@H](CO)O1 | 1.0
CCN1[C@@H]2c3ccc(-c4cccnc4)c(=O)n3C[C@H]1[C@H](CO)[C@H]2C(=O)NC1CCCC1 | -1.6
CO[C@@H]1CN(C)C(=O)c2cc(NC(C)=O)ccc2OC[C@H](C)N(Cc2ccccn2)C[C@@H]1C | -1.2
CCOC(=O)c1csc(NC(=O)CCS(=O)(=O)c2ccc(Cl)cc2)n1 | -6.0

Three entries from above, with the structure last:
MLL AF4-AF9 inh,Compound
-2.5,C[C@H]1CN([C@@H](C)CO)C(=O)c2cccc(NC(=O)C3CCOCC3)c2O[C@H]1CN(C)Cc1ccc(Cl)c(Cl)c1
-0.1,CC(C)CC#Cc1cnc2c(c1)C(=O)N([C@@H](C)CO)C[C@@H](C)[C@@H](CN(C)S(=O)(=O)c1cccs1)O2
0.8,CCC(=O)N1CC2(C1)[C@H](c1ccc(-c3ccc(C)cc3)cc1)[C@@H](CO)N2S(C)(=O)=O

Carrying on:
Compound | MLL AF4-AF9 inh
CNC[C@H]1OCCCC[C@@H](C)Oc2ccc(NC(=O)Nc3ccc(C(F)(F)F)cc3)cc2C(=O)N([C@H](C)CO)C[C@@H]1C | 8.4
C=C1CC[C@@H]2[C@](C)(CO)[C@H](O)CC[C@@]2(C)[C@@H]1C/C=C1/C(=O)OCC1O (stereo not given in full) | -3.3
C[C@@H]1CN([C@@H](C)CO)C(=O)c2cc(NC(=O)c3ccncc3)ccc2O[C@@H](C)CCCCO[C@H]1CN(C)C(=O)Nc1ccccc1 | -3.9
CCN(C[C@H]1[C@@H](c2ccc(-c3ccccc3)cc2)[C@@H](CO)N1C(C)=O)C(C)=O | -1.1
CC(C)NC(=O)Nc1cccc2c1O[C@@H](CN(C)Cc1ccc(C(F)(F)F)cc1)[C@@H](C)CN([C@H](C)CO)C2=O | 3.0
C[C@@H]1CN([C@H](C)CO)C(=O)Cc2cc(NC(=O)CCN3CCOCC3)ccc2O[C@@H]1CN(C)Cc1ccc(-c2ccccc2)cc1 | 11
O=S(=O)(c1cccc(F)c1)N1[C@@H]2CNC[C@H]1C2c1ccc(-c2ccncc2)cc1 (stereo not given in full) | -3.0
CN1CCN(C(=O)C[C@@H]2CC[C@@H](NC(=O)Nc3ccccc3F)[C@@H](CO)O2)CC1 | -0.5
Cc1n[nH]c2c([N+](=O)[O-])c(=O)[nH]c(=O)n12 | -19
CC=Cc1ccc2n(c1=O)C[C@H]1[C@H](CO)[C@@H](C(=O)NCC)[C@@H]2N1Cc1cccc(Cl)c1 (mixture of isomers) | -0.5
Cc1cccc(S(=O)(=O)N2CC[C@H]3[C@@H](CO)N(C)c4ccc(-c5ccc(C#N)cc5)cc4[C@H]32)c1 | -8.7
C[C@H](CO)N1C[C@H](C)[C@H](CN(C)Cc2ccc(-c3ccccc3)cc2)Oc2c(NC(=O)Nc3ccc(C(F)(F)F)cc3)cccc2C1=O | 0.7
COc1ccc(-c2cnc3c(c2)C(=O)N([C@@H](C)CO)C[C@H](C)[C@@H](CN(C)C(=O)Cc2ccccc2)O3)cc1 | -1.7
CC=Cc1ccc2n(c1=O)C[C@@H]1[C@@H](CO)[C@H](C(=O)NC3CCCC3)N(Cc3ccccc3)[C@H]21 (mixture of isomers) | -5.4
C[C@H]1CN([C@@H](C)CO)C(=O)c2cc(C#Cc3ccccc3F)cnc2O[C@@H]1CN(C)C(=O)c1ccc2c(c1)OCO2 | 1.6
O=C(NC1CCCC1)C1c2ccccc2OCC(=O)N1Cc1ccccc1 (stereo not given) | -7.5
C[C@@H]1CN([C@H](C)CO)C(=O)c2cccc(NS(=O)(=O)c3ccc(F)cc3)c2O[C@H]1CN(C)C(=O)Nc1cccc2ccccc12 | 1.1
CC1(c2nnnn2Cc2ccccc2)CCC(=O)N1C1CC1 (stereo not given) | -0.6
COc1ccc(S(=O)(=O)Nc2cccc3c2O[C@@H](CN(C)C(=O)NC2CCCCC2)[C@@H](C)CN([C@H](C)CO)C3=O)cc1 | -1.5
CSc1ccc(Cn2c(C)c(C(=O)NCc3cccs3)sc2=O)cc1 | -2.5
CCOC(=O)C1=C[C@@H](C(C)C)N(S(=O)(=O)c2ccc(C)cc2)[C@H]1c1ccc(C(C)C)cc1 | -1.7
C[C@@H]1CN([C@H](C)CO)C(=O)c2cc(NC(=O)Nc3ccc(C(F)(F)F)cc3)ccc2O[C@@H]1CN(C)C(=O)Nc1ccc(F)cc1 | 2.7
CCCC#Cc1ccc2c(c1)O[C@H](CN(C)C)[C@@H](C)CN([C@H](C)CO)S2(=O)=O | 1.4
O=C(Nc1ccc(F)cc1)N1CC(=O)N2[C@@H](CO)[C@@H](c3ccc(-c4ccccc4)cc3)[C@@H]2C1 | -1.2

The final 3 compounds of the section above lead into the next.
Compound | MLL AF4-AF9 inh
C[C@@H]1CN([C@H](C)CO)C(=O)c2cc(NC(=O)Nc3ccc(C(F)(F)F)cc3)ccc2O[C@@H]1CN(C)C(=O)Nc1ccc(F)cc1 | 2.7
CCCC#Cc1ccc2c(c1)O[C@H](CN(C)C)[C@@H](C)CN([C@H](C)CO)S2(=O)=O | 1.4
O=C(Nc1ccc(F)cc1)N1CC(=O)N2[C@@H](CO)[C@@H](c3ccc(-c4ccccc4)cc3)[C@@H]2C1 | -1.2
C[C@@H]1CCCCO[C@H](CN(C)C(=O)Nc2ccccc2)[C@H](C)CN([C@H](C)CO)C(=O)c2cc(NC(=O)Nc3ccc(F)cc3)ccc2O1 | -0.7
COc1ccccc1C(=O)N1C[C@@H]2[C@H](c3ccccc31)[C@@H](CO)N2C(=O)Nc1ccccc1 | 4.6
CN(C)CC(=O)Nc1ccc2c(c1)[C@H]1C[C@@H](CC(=O)NCc3ccc(Cl)cc3)O[C@H](CO)[C@H]1O2 | -22
C[C@@H]1CN([C@@H](C)CO)C(=O)Cc2cc(NC(=O)Nc3ccc(C(F)(F)F)cc3)ccc2O[C@H]1CN(C)C(=O)NC1CCCCC1 | 5.3
C[C@H](CO)N1C[C@H](C)[C@@H](CN(C)C(=O)Cc2ccccc2)OCCCC[C@H](C)Oc2ccc(NS(=O)(=O)c3ccccc3)cc2C1=O | -0.8
COc1cccc(-c2cn(CC[C@@H]3CC[C@H](NC(=O)CC4CC4)[C@H](CO)O3)nn2)c1 | 0.1
Nc1[nH]c(C(=O)c2ccccc2)c(-c2ccccc2C(F)(F)F)c1C(=O)NCCc1cccs1 | -2.7
CC(C)NC(=O)N(C)C[C@H]1Oc2c(NC(=O)c3nc4ccccc4s3)cccc2C(=O)N([C@@H](C)CO)C[C@H]1C | -3.2
O=C(C[C@@H]1C=C[C@@H](NC(=O)C2CCOCC2)[C@H](CO)O1)NCc1ccncc1 | -1.6
O=C(Cc1ccccc1)N1C[C@H]2[C@@H](c3ccccc31)[C@@H](CO)N2C(=O)c1cccc(F)c1 | -3.7
CC=Cc1ccc2n(c1=O)C[C@@H]1[C@@H](CO)[C@H](C(=O)NC3CCC3)N(CCC)[C@H]21 (mixture of isomers) | -6.3
C[C@@H]1CN([C@@H](C)CO)S(=O)(=O)c2ccc(C#C[C@@H](C)O)cc2O[C@H]1CN(C)C(=O)C1CCC1 | -1.8
CO[C@@H]1CN(C)C(=O)c2ccc(NS(=O)(=O)c3cccc(C)c3)cc2OC[C@@H](C)N(C(=O)Cc2cccnc2)C[C@H]1C | 1.0
C[C@@H]1CN([C@H](C)CO)C(=O)Cc2cc(NC(=O)CCN3CCOCC3)ccc2O[C@@H]1CN(C)CC1CC1 | -2.2
C[C@H](CO)N1C[C@H](C)[C@H](CN(C)C(=O)c2ccc3c(c2)OCO3)Oc2cc(-c3cncnc3)ccc2S1(=O)=O | -1.3
CCCCOCCCNC(=O)C[C@@H]1C[C@@]2(C(=O)OC)CC(C)(C)CC=C2N(Cc2cccc3ccccc23)C1=O | -3.2
CC(C)NC(=O)N(C)C[C@H]1Oc2ccc(NC(=O)Nc3ccc(F)cc3)cc2CC(=O)N([C@H](C)CO)C[C@@H]1C | 0.5
C[C@@H]1CN([C@@H](C)CO)C(=O)c2cccc(NC(=O)Nc3ccc(F)cc3)c2O[C@@H]1CN(C)C(=O)Nc1cccc2ccccc12 | 4.6
COc1cccc(COC(=O)CSCC(=O)Nc2ccc(C)cc2)c1OC | -1.3
CO[C@H]1CN(C)C(=O)c2ccc(NS(C)(=O)=O)cc2OC[C@H](C)N(C(=O)C2CC2)C[C@@H]1C | -0.4
COc1ccc(NC(=O)N(C)C[C@@H]2Oc3c(NS(=O)(=O)c4ccc(Cl)cc4)cccc3C(=O)N([C@@H](C)CO)C[C@@H]2C)cc1 | 2.1
COc1ccccc1-c1ccccc1[C@@H]1[C@H](C#N)N(C(=O)CN(C)C)[C@H]1CO | -2.9
CCCNC(=O)N[C@@H]1CC[C@@H](CCn2cc(C3CC3)nn2)O[C@H]1CO | 0.1
CC(C)CNC(=O)C1C(=O)Nc2ccccc2C(=O)N1C(C)(C)C (stereo not given) | -7.3
Cc1noc(C)c1S(=O)(=O)Nc1ccc2c(c1)C(=O)N([C@H](C)CO)C[C@H](C)[C@H](CN(C)Cc1ccncc1)O2 | -3.0
Cc1noc(C)c1NC(=O)Nc1ccc2c(c1)C(=O)N([C@H](C)CO)C[C@H](C)[C@H](CN(C)S(=O)(=O)c1ccccc1)OCCCC[C@@H](C)O2 | -1.8
C[C@H]1CN([C@@H](C)CO)C(=O)c2cccc(NC(=O)c3cnccn3)c2O[C@H]1CN(C)CC1CC1 | -2.2
O=C(C[C@H]1C=C[C@H](NC(=O)c2ccccc2)[C@@H](CO)O1)NCc1ccncn1 | -2.3
COc1ccccc1-c1ccccc1[C@@H]1[C@@H](C#N)N(C(=O)C2CCC2)[C@H]1CO | -0.9
C[C@H](O)C#Cc1cnc2c(c1)C(=O)N([C@H](C)CO)C[C@@H](C)[C@H](CN(C)CC1CCOCC1)O2 | -2.4
CC(C)C[C@H]1CNC(=S)N1C[C@H]1CCCN1C[C@H](CC(C)C)N1C[C@H](Cc2ccc(O)cc2)N(CC2CCCCC2)C1=S | 6.6
COCCCNc1ccn2nc(-c3ccc(CC(C)C)cc3)cc2n1 | -9.3

2 compounds drawn at random from those above, as already listed:
Compound | MLL AF4-AF9 inh
CC(C)C[C@H]1CNC(=S)N1C[C@H]1CCCN1C[C@H](CC(C)C)N1C[C@H](Cc2ccc(O)cc2)N(CC2CCCCC2)C1=S | 6.6
Cc1noc(C)c1S(=O)(=O)Nc1ccc2c(c1)C(=O)N([C@H](C)CO)C[C@H](C)[C@H](CN(C)Cc1ccncc1)O2 | -3.0

(more compounds)
Compound | MLL AF4-AF9 inh
C[C@@H]1CN([C@H](C)CO)C(=O)c2cc(NC(=O)CCC(F)(F)F)ccc2O[C@H]1CN(C)S(=O)(=O)c1ccccc1 | -1.0
C[C@@H]1CN([C@@H](C)CO)S(=O)(=O)c2ccc(-c3ccc(F)cc3)cc2O[C@H]1CN(C)C(=O)C1CCOCC1 | -1.5
CCCC[C@@H]1CNC(=O)C(=O)N1CC1CCCCC1 | 2.8
C[C@@H]1CN([C@@H](C)CO)C(=O)c2cccc(NC(=O)Nc3ccc(C(F)(F)F)cc3)c2O[C@H]1CN(C)S(=O)(=O)c1ccc(F)cc1 | 0.9
